Screens from PubChem BioAssay.
S aureus helic – inhibitors of S. aureus replicative helicase, primary screen, biochemical, fluorescence unwinding readout | purified S. aureus helicase, fluorescence unwinding assay; about half of the hits fall short of the stated cut | inhibition, %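 (tested at about 80 µM)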 | hit rate 0.05% among 120,000 | AID 485395, 2010;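 active = both duplicates at 50% or more, or one of them with a favoured structure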;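 also: 0% = mean of negative control wells and 100% = mean of positive control wells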
MgrA DNA FP – S. aureus MgrA activity modulators, primary screen, biochemical, S. aureus Newman, fluorescence polarization. MgrA-DNA binding. inhibition, %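 (about 10 µg/mL by stock and volumes)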. hit rate 0.13% among 84,000;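 active = above 50% in either of two replicates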;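 also: 0% = protein plus DNA without compound and 100% = DNA alone without protein; higher means less MgrA bound to DNA so lower polarization; one replicate is shown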
* marks the source's active call; other numbers are inactive results; . = no result given; & = joins results of further samples. Not all compounds are listed; rates above refer to the full screens.

The opening 2 entries (preview)
SMILES	S aureus helic	MgrA DNA FP
CC(OC(=O)c1cccs1)C(=O)N1CCc2ccccc21 (stereo unspecified)	-4	.
CC(=O)Nc1ccc(F)cc1	.	1.6

The list itself, repeating the preview:
SMILES	S aureus helic	MgrA DNA FP
CC(OC(=O)c1cccs1)C(=O)N1CCc2ccccc21 (stereo unspecified)	-4	.
CC(=O)Nc1ccc(F)cc1	.	1.6
CCCn1c(SCc2csc(CC(=O)Nc3ccccc3C)n2)n[nH]c1=O	-12	.
O=C1c2cccc3cccc(c23)C(=O)N1NCCO	.	2.4
Cc1cc(-n2c(=S)sc3c(=O)n(-c4ccc(F)cc4)c(SCC#N)nc32)ccc1Cl	12	-0.8
O=C(CC1=NS(=O)(=O)c2ccccc2N1)NCCC1=CCCCC1	-18	.
CC(C)(O)C(C)(C)CCO	-1	.
COc1cccc(NC(=S)NN)c1	7	-0.5
C1=C(c2ccccc2)Nc2ncnn2C1c1ccc2c(c1)OCO2 (stereo unspecified)	22	.
CCOC(=O)CN1C(=O)/C(=C2\SC(=S)N(c3ccc(Br)cc3)C2=O)c2ccccc21	.	1.0
Cc1cc(CNC(=O)CSc2nnc3ccccn23)cc(C)c1O	-5	.
Cn1c(-c2ccccc2)cnc1N	13	15
CC(C(=O)Nc1ccc(S(N)(=O)=O)cc1)C1SC(=O)NC1=O (stereo unspecified)	13	.
N#CC(C#N)=C1CCCN1CC(=O)c1ccccc1	-6	2.2
O=C(COC(=O)c1cc2ccccc2o1)c1ccc(Br)cc1	-3	.
CCn1c2ccccc2c2cc(/C=N/NC(=O)c3ccncc3)ccc21	-1	3.0
CCOc1cc(C#N)c(NC(=O)c2ccncc2)cc1OCC	8	.
O=C(Nc1ccc(F)cc1F)c1ccccc1I	.	-0.1
CC(C)(C)c1ccc(-c2nnc(-c3ccc(N4CCOCC4)cc3)o2)cc1	-4	3.4
Cc1oc2ncn3c(C)nnc3c2c1C(=O)NC1CC1	-28	.
O=C1NC(c2ccc(F)cc2)(C(F)(F)F)C(=O)N1Cc1ccco1 (stereo unspecified)	2	0.9
CC1(C)OC(c2ccccc2)=NC1=O	13	-0.4
O=C1C2C3C=CC(C3)C2C(=O)N1/N=C/c1ccc(O)c(O)c1 (stereo unspecified)	6	5.0
CCn1ncc(/C=N/O)c1C	-15	0.2
C/C(=C/C(=O)O)C(=O)Nc1ccccc1F	0	.
NC(N)=NS(=O)(=O)c1ccccc1	2	.
O=C1OC(c2ccccc2Br)=N/C1=C\N1CCN(c2ccc([N+](=O)[O-])cc2)CC1	.	0.6
CC(C)(C)S(=O)(=O)c1ccc(-c2ccccc2)cc1	6	-1.1
O=S(=O)(Nc1ccc(-c2ccno2)cc1)c1ccc2[nH]c3c(c2c1)CCCC3	9	6.2
Nc1noc2oc3nc(-c4ccncc4)cc(C(F)(F)F)c3c12	2	2.2

Shown as labelled records: entries from further up
compound: O=C1OC(c2ccccc2Br)=N/C1=C\N1CCN(c2ccc([N+](=O)[O-])cc2)CC1
  S aureus helic: .
  MgrA DNA FP: 0.6

compound: CC(C)(C)S(=O)(=O)c1ccc(-c2ccccc2)cc1
  S aureus helic: 6
  MgrA DNA FP: -1.1

compound: O=S(=O)(Nc1ccc(-c2ccno2)cc1)c1ccc2[nH]c3c(c2c1)CCCC3
  S aureus helic: 9
  MgrA DNA FP: 6.2

compound: Nc1noc2oc3nc(-c4ccncc4)cc(C(F)(F)F)c3c12
  S aureus helic: 2
  MgrA DNA FP: 2.2

Following part:
SMILES	S aureus helic	MgrA DNA FP
Cc1ccccc1CN1CCN(CC(=O)N(C)C2(C#N)CCCCC2)CC1	6	.
Cc1ncc(CO)c(/C=N/NC(N)=S)c1O	-8	.
CC(CC(=O)O)(C(=O)O)c1ccccc1 (stereo unspecified)	-8	.
O=C(Nc1cccc(F)c1C(=O)Nc1ccc(F)cc1F)c1cccs1	.	0.8
Fc1ccc(-c2ccc(CNCCCSc3ncccn3)o2)cc1Cl	16	-4.1
COc1cc(C2C3=C(CC(C)(C)CC3=O)OC3=C2C(=O)CC(C)(C)C3)ccc1OC(=O)CNc1ccc2c(c1)OCO2	.	0.2
N#CC1(c2ccccc2)CCN(S(=O)(=O)c2ccc(OC(F)(F)F)cc2)CC1	-12	0.8
COC(=O)c1ccc(COC(=O)C2CC(=O)N(Cc3ccco3)C2)cc1 (stereo unspecified)	-4	.
NC(=O)C1CCN(C2CCN(C(=O)c3cccn4c(=O)c5ccc(Cl)cc5nc34)CC2)CC1	4	-1.4
COc1ccc(C(=O)OCc2cc(=O)n3cc(C)ccc3n2)c(OC)c1OC	10	.
O=C1CN(/N=C/c2ccc(-c3ccc([N+](=O)[O-])cc3)o2)C(=O)N1	.	9.1
O=C(NCc1ccc2c(c1)OCO2)C1CCN(c2ccc(S(=O)(=O)N3CCCC3)cc2)CC1	18	-0.9
CS(=O)(=O)NCCc1ccc(C(=O)O)s1	-2	.
Cc1cc(C)nc(SCC2=NC(C)(C)Cc3ccccc32)n1	2	.
COC(=O)c1sccc1S(=O)(=O)N1CCN(C2c3ccccc3-c3ccccc32)CC1	.	-2.7
COc1ccc(C(=O)NCc2nnc(SC(C)C)n2-c2ccccc2)cc1	-17	.
COc1ccc(CNCc2cc(OC)c(OC)c(OC)c2)cc1	.	-1.3
O=C(NC(=O)c1ccccc1)Oc1ccc(Cl)cc1	.	-1.5
CCc1cc2cc3c(cc2nc1SCCN1CCOCC1)OCO3	-2	-3.5
CCOC(=O)c1cc(CC)sc1NC(=O)c1ccccc1C(=O)O	.	-2.1
COc1ccc(C)c2c1CCC2	.	-4.0
CC(C)C(=O)N1CCN(c2ccccc2)CC1	8	0.1
Cc1cnc(C(=O)OCCCCN2C(=O)c3ccccc3C2=O)cn1	-6	.
O=C1NC(=O)C2(COC(c3ccccc3)OC2)S1 (stereo unspecified)	3	0.2
CCOC(=O)COc1ccc(C2C3=C(CC(C)(C)CC3=O)OC3=C2C(=O)CC(C)(C)C3)cc1OC	.	2.5
CN(C)C(C(=O)O)c1ccc(Cl)cc1 (stereo unspecified)	-4	-1.7
N#CCCn1c(SCC(=O)c2ccc(Cl)s2)nc2ccccc21	-9	.
CCOc1ccc(NC(=O)Cc2c(C(=O)O)[nH]c3ccccc23)cc1	-11	.
COc1ccc2c(c1)sc(=NC(=O)CSCC(=O)Nc1nc(-c3ccccc3)cs1)n2C	4	0.8
CC(=O)OC(Cn1nc(C)cc1C)c1ccccc1 (stereo unspecified)	2	.
O=C1NC(=S)SC1CNc1ccccc1 (stereo unspecified)	4	19
O=C(CNc1ccccc1Cl)N/N=C1\CCCc2ccccc21	-1	-1.3
CC(=NC1CC1)C1=C(O)c2ccccc2C1=O	15	0.2
CS(=O)(=O)N1CCSC1c1cccc(Cl)c1 (stereo unspecified)	-4	.
CCn1cc(C(=O)NCCC(C)C)c(=O)c2cc(S(=O)(=O)N(C)C)ccc21	-11	.
COc1cccc(CNCC2CCCO2)c1OCC(=O)NC(C)(C)C (stereo unspecified)	2	-3.8
COc1ccccc1NC(=O)COc1ccc(/C=N/n2cnnc2)cc1OC	7	-0.8
CC1CC(=O)Nc2ccccc2N1C(=O)CSc1ccc2c(c1)OCCCO2 (stereo unspecified)	15	.
COC(=O)Nc1nc2ccc(C(=O)c3cccs3)cc2[nH]1	.	5.6&1.2&2.0&2.5
CCN(Cc1nc2cc(OC)c(OC)cc2c(=O)[nH]1)C(=O)NC(C)(C)C	2	.
Cc1cc(Sc2ncccc2[N+](=O)[O-])c(Cl)cc1Cl	.	-5.0
CCOc1cc2oc(=O)cc(C)c2cc1OCC	7	-4.8
Fc1ccc(-c2ccc(/C=N/n3cnnc3)[nH]2)cc1	17	-0.5
CCn1c(SCc2ccccc2)nnc1C1CCCCC1	11	-1.3
Cc1cc2[nH]c(=O)c(=O)[nH]c2cc1S(=O)(=O)N(C)C1CCCCC1	1	-1.1
Cc1nc(NC2CCN(CC(=O)Nc3ccc4c(c3)OCCO4)CC2)[nH]c(=O)c1C	-5	0.9
CCCOc1ccc(NC(=O)C2CC(=O)N(C(C)C)C2)cc1 (stereo unspecified)	19	-2.6
N#Cc1cc(C#N)c(SCc2cc3c(cc2Br)OCCO3)nc1N	-26	.
CCCC(C)(SCC(=O)O)SCC(=O)O	.	-1.8
CN(C)C(=O)Cc1c[nH]c2ccccc12	13	.
CCCN1CCC(NC(=O)c2cccc(Oc3ccccc3)c2)CC1	-1	-4.7
CCCOC(=O)C1=C(C)NC2=C(C(=O)CC(c3ccc(Cl)cc3)C2)C1c1cc2c(cc1[N+](=O)[O-])OCO2 (stereo unspecified)	.	0.4
CN(C)S(=O)(=O)c1ccc2nnn(OCc3ccccc3)c2c1	-5	.
O=C1C=CC(=O)N1c1ccc(N2CCCCC2)cc1	11	10
Cc1ccc(NC(=O)CCNS(=O)(=O)c2ccc3c(c2)CCC(=O)N3)cc1	11	-0.4
Cn1c(SCC(=O)c2ccc(O)cc2O)nnc1C(F)(F)F	30	.
N=C(N)SCc1cn(-c2ccccc2)nc1-c1ccc(Br)cc1	-6	-8.9
COc1cc(C(O)c2cc(C(F)(F)F)cc(C(F)(F)F)c2)cc(OC)c1OC (stereo unspecified)	.	0.8
CCOC(=O)N1CCC2(CC1)C(C(=O)c1ccccc1)C2(C#N)C#N (stereo unspecified)	-3	-1.4
OCCNC(=S)NC12CC3CC(CC(C3)C1)C2	1	-0.8
Following part
SMILES	S aureus helic	MgrA DNA FP
CCS(=O)(=O)c1ccc(O)c(N=Cc2c(O)[nH]c(=S)[nH]c2=O)c1	-21	.
COc1ccc(C(=O)c2ccccc2C(=O)O)cc1	.	-1.5
CCN(Cc1cc(Cl)cc(Cl)c1)C(=O)c1cnc(OC)cc1C(F)(F)F	.	-2.1
C/C(=N\O)c1ccc(Cl)cc1	.	0.1
CCOC(=O)Cn1cc(S(=O)(=O)N2CCC(C)CC2)c(S(=O)(=O)N2CCC(C)CC2)c1	5	.
CN(CC1COc2ccccc2O1)C(=O)c1ccc(Cl)cc1Cl (stereo unspecified)	5	.
Cc1nc(OCC2CN(Cc3ccccc3)CCO2)c2ccccc2n1 (stereo unspecified)	-12	.
O=C(Nc1c2c(nn1-c1cccc(Cl)c1)CS(=O)C2)c1cccc(Br)c1 (stereo unspecified)	10	-0.3
CCc1ccc(NC(=O)CCn2c(=O)c3cccn3c3cccnc32)cc1	3	.
Clc1nc2ncccc2nc1-c1ccccc1	3	0.5
O=C(N/N=C/c1cc2c(cc1Br)OCO2)c1ccc(CN2CCOCC2)cc1	0	4.0
NC(=S)n1[nH]c(-c2ccccc2)c(N=Nc2ccccc2O)c1=O	-31	7.9
O=c1c2ccccc2c(C=NCc2cccnc2)c(O)n1-c1ccccc1C(F)(F)F	0	1.2
O=C(O)COc1ccc2nccnc2c1	8	.
Cc1cc(N=Cc2c(O)ccc3ccccc23)no1	10	24
COc1cccc(C(=O)NNC(=O)c2ccccc2N)c1	.	0.8
COc1ccc(CN2C(=O)c3ccccc3CC2(C)C(=O)NC2CCCCC2)cc1 (stereo unspecified)	-11	0.7
Cc1nn(-c2ccccc2)nc1C(=O)Oc1c(Cl)cccc1Cl	.	3.1
O=c1cc(C(F)(F)F)nc(-c2ccccc2OC(F)(F)F)[nH]1	.	-0.9
C/C(=N/NC(N)=S)C1C(=O)c2ccccc2C1=O	21	.
Cc1ccc(-c2csc(=S)n2CC(=O)O)cc1	8	-0.7
CC(C)(C)CC(C)(C)NC(=O)c1cccs1	.	0.0
C=CCNCCOc1cccc(CC)c1	10	-6.0
Cc1cc2nc(SCCOC(=O)Nc3ccc(Cl)cc3)nc(C)c2cc1C	3	-1.4
COc1ccccc1NCn1c(=O)sc2ccccc21	2	3.1
O=C(c1ccc2c(c1)OCO2)N(c1ccccc1)C1C=CS(=O)(=O)C1 (stereo unspecified)	4	.
Cc1ccccc1NC(=O)CSc1nccc(=O)[nH]1	4	-0.1
Nc1cccc(-c2ncn[nH]2)c1	9	3.8
COc1ccc(S(=O)(=O)CCc2nnc(-c3ccncc3)o2)cc1	-6	.
COc1ccc(C2=NN(C(=O)CCC(=O)O)C(c3ccccc3)C2)cc1 (stereo unspecified)	.	-0.4

An excerpt from above in order of length of the SMILES, falling.
SMILES	S aureus helic	MgrA DNA FP
COc1ccc(CN2C(=O)c3ccccc3CC2(C)C(=O)NC2CCCCC2)cc1 (stereo unspecified)	-11	0.7
O=C(c1ccc2c(c1)OCO2)N(c1ccccc1)C1C=CS(=O)(=O)C1 (stereo unspecified)	4	.
Cc1cc2nc(SCCOC(=O)Nc3ccc(Cl)cc3)nc(C)c2cc1C	3	-1.4
C/C(=N/NC(N)=S)C1C(=O)c2ccccc2C1=O	21	.
Cc1ccccc1NC(=O)CSc1nccc(=O)[nH]1	4	-0.1
Nc1cccc(-c2ncn[nH]2)c1	9	3.8
C=CCNCCOc1cccc(CC)c1	10	-6.0

(cont.)
SMILES	S aureus helic	MgrA DNA FP
CC(=O)Nc1nnc(SCC(=O)N2CCc3ccccc32)s1	-13	.
COc1cc(/C=C2\C(=O)NC(=O)N(c3ccc(Cl)cc3)C2=O)c([N+](=O)[O-])cc1OC	.	10
O=C(CSc1nccc(-c2cccs2)n1)Nc1ccccc1	.	0.1
O=c1oc2ccccc2n1CCOc1cccc2ccccc12	9	-2.4
O=C1COc2ccc(C(=O)COC(=O)c3ccc(S(=O)(=O)N4CCOCC4)cc3)cc2N1	-10	.
O=C1NC(c2ccccc2)(C(F)(F)F)SC2=CCCCCN12 (stereo unspecified)	-5	.
COc1ccc(S(=O)(=O)N2CCc3ccccc3C2)cc1	3	-1.3
O=C(OCC(=O)c1c[nH]c2ccccc12)c1ccc(N2CCCC2=O)cc1	-18	.
CC(=O)Nc1ccc(-n2cccc2)cc1	11	-2.5
